# Env fusion inh = inhibitors of HIV-1 Env-driven cell-cell fusion, primary screen, HeLa-JRFL effector, CEM21 target cells, luciferase. 1.1% of 360,000 active. inhibition, % at 12.3 µM. AID 651610, 2012;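 active = mean replicate inhibition score of at least 50 and every replicate individually at or above 50; inconclusive = only one of the two criteria met; inactive = mean below 50 and not all replicates reaching 50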;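 also: 0% = plate neutral controls and 100% = maraviroc near 300 nM; one replicate is shown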
# eIF4H FP inh = human eIF4H binding inhibitors, primary screen, translation initiation inhibitor project, biochemical, uHTS, fluorescence polarization | inhibition, % at 35 µM | Eukaryotic translation initiation factor 4H (Homo sapiens), Q15056 | 0.94% of 290,000 active | AID 2012, 2009 | eIF4H fluorescence polarization binding assay;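 active = 50% or more with normal probe brightness, or confirmed in later tests; inconclusive = above 50% with abnormal brightness, or retests that disagree; inactive = below 50% or failed in later tests; about a fifth of its hits are not listed in these tables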;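 also: calls also rest on retests at 20 µM and on dose response follow-up; 0% = protein and probe with vehicle and 100% = probe without protein; strong numbers were not always called active; many hits fall short of the cut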
# MT1-MMP act inh = blockers of MT1-MMP proenzyme processing, primary screen, HT1080 RFP-PRO-GFP cells, GFP/RFP fluorescence. Matrix metalloproteinase-14 (Homo sapiens), P50281. GFP/RFP ratio fluorescence, overnight; percent of plate control window, DMSO zero. GFP/RFP ratio change, % at 20 µM. 0.061% of 360,000 active. AID 651647, 2012;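 active = GFP/RFP ratio change of at least 30% with cell ATP level not reduced by more than half and red fluorescence within 50% of control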; also: strong numbers were not always called active
#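 Test system: HT1080 RFP-PRO-GFP cells; Benchmarks: DMSO and RFP-L50D-GFP cell wells; Timing: cells overnight before dosing, compound overnight, 37 °C, 5% CO2; Compound: one 20 µM compound dose with 1% DMSO; Read-out: GFP/RFP fluorescence ratio.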
# UUG fidelity = modulators of yeast start codon fidelity, primary screen, whole organism, S. cerevisiae, single point, plate reader; activity score, % at 18.7 µM; 0.13% of 350,000 active; S. cerevisiae UUG-firefly luciferase reporter, luminescence/redox ratio;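 active = replicate mean at a twofold rise or more, about +100% in these data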;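 also: firefly luciferase made from a UUG start codon reports start codon fidelity; reporter light over untreated wells divided by growth signal over untreated wells; some hits fall short of that in this replicate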
# CSC inhib = cancer stem cell viability inhibitors, primary screen, luminescence | cancer stem cell-like cells viability | inhibition, % at 7.5 µM | 1.1% of 300,000 active | AID 2717, 2010;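 active = mean at 75% or more and at least half the replicates too; inconclusive = mean and replicates disagree; tested in HMLE shEcad cells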;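 also: 0% = median of negative and 100% = median of positive control wells; the first replicate is given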
# PABP FP inh = PABP poly(A) RNA binding inhibitors, primary screen, biochemical, fluorescence polarization, uHTS | Polyadenylate-binding protein 1 (Homo sapiens), P11940 | inhibition, % at 35 µM | 1% of 290,000 active;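 active = 50% or more with normal probe brightness, or confirmed in later tests; inconclusive = above 50% with abnormal brightness, or retests that disagree; inactive = below 50% or failed in later tests; about a fifth of its hits are not listed in these tables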;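 also: calls also rest on retests at 20 µM and on dose response follow-up; controls were probe without protein and protein plus probe with vehicle; some compounds called inactive have numbers as strong as hits; many hits fall short of the cut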
# Rce1 inhib = yeast Rce1p protease inhibitors, primary screen, biochemical, fluorescence, cell-free homogeneous; yeast membranes, quenched prenylated peptide cleavage fluorescence; CAAX prenyl protease 2 (Saccharomyces cerevisiae (strain ATCC 204508 / S288c)), Q03530; 0.27% of 290,000 active; AID 2563, 2010; calls only;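 active = fall in fluorescence gain of 50% or more versus controls, with final raw signal at or below 3038400; inconclusive = same 50% fall but final raw signal above 3038400; inactive = fall in fluorescence gain under 50%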;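 also: plate controls were neutral control wells for no effect and wells lacking membranes for full effect; tested at 10 µM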
# Target sequence (Q03530 whole entry, looked up): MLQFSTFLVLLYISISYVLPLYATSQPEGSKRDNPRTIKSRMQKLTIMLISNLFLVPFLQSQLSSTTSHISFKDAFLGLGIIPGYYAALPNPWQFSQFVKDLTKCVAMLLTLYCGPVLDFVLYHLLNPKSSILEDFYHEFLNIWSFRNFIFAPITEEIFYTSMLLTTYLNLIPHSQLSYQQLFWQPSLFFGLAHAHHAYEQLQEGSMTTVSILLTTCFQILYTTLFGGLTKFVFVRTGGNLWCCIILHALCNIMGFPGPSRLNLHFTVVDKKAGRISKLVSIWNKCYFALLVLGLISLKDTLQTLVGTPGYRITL
# eIF4H FP inh retest = further read-out of eIF4H FP inh, marked with its call; inhibition, %; compound at 20 µM; confirmation average;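 mean of two retest wells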
# PABP FP inh retest = recorded beside PABP FP inh, whose call it bears; inhibition, %; compound at 20 µM; confirmation repeats;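 mean of two retest wells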
# MT1-MMP act inh RFP = further read-out of MT1-MMP act inh, marked with its call; RFP signal change, %; measured here: RFP expression control read;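 0 = vehicle wells; hits needed this value within 50% of zero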
# Active calls of the source: *; i = inactive; ? = inconclusive; / = not tested or not shown.
SMILES,Env fusion inh,eIF4H FP inh,MT1-MMP act inh,MT1-MMP act inh RFP,UUG fidelity,CSC inhib,PABP FP inh,Rce1 inhib,others
CCN1CCCC1CNCC(=O)Nc1ccc(OC(F)(F)F)cc1 (stereo not drawn),13,12,0,4,-27,-13,2,i,
CCCCOc1ccc(Cl)cc1CSc1n[nH]c(C)n1,11,-4,-1,-9,-18,/,-6,/,
CC(CC(=O)N1CCN(C(=O)c2ccccc2)CC1)c1ccccc1 (stereo not drawn),-16,-6,1,1,-3,-10,-8,i,
N#C/C(=C\c1ccncc1)C(N)=O,-3,0,3,4,-3,-18,2,i,
Cc1ccc(/C=C(\NC(=O)c2ccccc2)C(=O)NC(Cc2ccccc2)C(=O)O)cc1 (stereo not drawn),14,-11,-4,0,2,8,30,i,
COc1ccc(NC(=O)CSc2nc3[nH]ncc3c(=O)[nH]2)cc1OC,6,/,-2,-3,-22,0,/,i,
CC(=O)Nc1ccc(NC(=O)C(C)OC(=O)c2ccc(C)s2)cc1 (stereo not drawn),4,4,-3,-4,/,3,12,i,
Cc1ccc(S(=O)(=O)N(C)C)cc1NC(=O)c1cccs1,-10,-3,0,-3,-16,-7,7,i,
CN(C)S(=O)(=O)c1cccc(NC(=O)CCCC2CCCCC2)c1,49,-2,0,-5,-5,1,7,i,
O=C(CCl)NCc1c(Cl)cccc1-n1cccc1,/,1,-7,2,-10,-8,3,i,
CC(c1ccccc1)N(NC(=O)C(O)(c1ccccc1)c1ccccc1)C(=O)c1ccccc1 (stereo not drawn),-27,-3,1,-4,-14,7,-11,i,
COc1ccc(C2N(c3ccc(OC)cc3)C(=O)C3CCCN32)cc1 (stereo not drawn),-19,-8,0,6,-18,-3,-1,i,
COc1ccc(OC)c(C2=Nn3c(nnc3C3CCCCC3)SC2)c1,-33,-2,1,2,-17,-16,2,i,
O=C(O)c1cccc2c1C(=O)c1ccc(-c3ccc(OC(F)(F)F)cc3)cc1S2(=O)=O,-2,/,8,5,16,1,/,/,
OCCCNc1ncnc2c1[nH]c1ccccc12,6,-5,7,1,-9,3,5,i,
CCCn1nc2cc(C(=O)NC3CCCc4ccccc43)ccc2c1OCC (stereo not drawn),-54,0,0,-4,-8,-20,4,i,
CC1CCC2C(C1)OS(=O)(=O)NC2(C)C (stereo not drawn),/,-4,/,/,/,-16,3,i,
O=C(/C=C/c1ccc(Cl)cc1Cl)NC(=S)Nc1ccccn1,/,-1,-12,-16,-24,1,-9,i,
CN(C)c1cccc(C(=O)Nc2cc(C(F)(F)F)ccc2-n2cnc3ccccc32)c1,/,8,0,4,/,13,11,i,
Cc1nc(SCC(=O)NCCc2ccc(Cl)cc2)nc(C)c1C,/,4,-6,1,/,-14,0,i,
CCOc1ccc(C(=O)Nc2nnc(SCC(=O)NCC3CCCO3)s2)cc1OCC (stereo not drawn),/,-8,3,4,2,-10,7,i,
Cc1nn(-c2ccccc2)c2sc(-c3n[nH]c(=S)o3)cc12,-24,2,-2,-3,-29,17,4,i,
Cc1nn(CC(=O)OCC(=O)Nc2ccccc2[N+](=O)[O-])c(C)c1[N+](=O)[O-],17,2,-2,1,-13,-8,-3,i,
O=C(CSc1nccc(=O)[nH]1)NC1CCCCCC1,4,/,1,3,-1,1,/,/,
COc1ccccc1-n1cnc2c(c1=O)c1nc3ccccc3nc1n2CCc1ccccc1,/,-1,-3,-6,/,4,-3,i,
Cc1cc(S(=O)(=O)n2cnc3cc([N+](=O)[O-])ccc32)ccc1Cl,18,2,-1,5,-6,-9,24,i,
Cc1cc(NC(=O)CCC(=O)N(CC(=O)NCC2CCCO2)c2ccc3c(c2)OCCO3)no1 (stereo not drawn),-127,-4,2,4,-11,-1,22,i,
COc1cc2c(cc1NC(=O)C(C)Sc1ccc(NC(C)=O)cc1)oc1ccccc12 (stereo not drawn),/,1,-1,-7,-1,57,-9,i,
COc1cccc(C(NC(C)=O)c2nc(-c3cccc(C(=O)O)c3)cs2)c1 (stereo not drawn),9,/,-1,0,-6,/,/,/,
CCCc1nc2ccc(Cl)cn2c1Cc1ccsc1,4,/,-6,-7,1,/,/,/,
CCOC(=O)c1c(NC(=O)CN2CCCCC2)sc(C)c1C,16,-15,-4,-5,/,37,2,i,
CCOC(=O)n1c(=O)n(C)c2ccc(Cl)cc21,29,3,5,1,/,/,?,i,
COc1cccc(-c2cc(C(=O)Nc3cc(OC)c(OC)c(OC)c3)no2)c1,33,-2,-7,-12,-7,43,4,i,
N=C1C(c2nc(-c3cccc([N+](=O)[O-])c3)cs2)=C(O)CN1NC(=O)c1ccco1,-10,-7,-1,3,/,10,8,i,
O=S(=O)(NCC(c1cccnc1)N1CCN(Cc2ccccc2)CC1)c1cc(F)ccc1F (stereo not drawn),-6,-4,-3,3,-1,0,-13,i,
CCOC(=O)N1CCN(S(=O)(=O)c2cccc3ccc(C)nc23)CC1,-1,-8,2,1,-1,-3,-14,i,
CC1CCc2sc(NC(=O)C3CC(Cl)=CCC3C(=O)O)c(C#N)c2C1 (stereo not drawn),18,-3,5,0,/,8,-10,i,
CN(C)c1c(F)cc(-c2nn[nH]n2)cc1F,-5,15,0,5,/,-1,3,i,
O=C(Cc1cccc(C(F)(F)F)c1)NCC(c1ccco1)N1CCCCC1 (stereo not drawn),11,-2,0,1,-26,-13,10,i,
O=c1cccc2n1Cc1cc3ccccc3nc1-2,/,7,/,/,-13,-11,7,i,
O=C1CN(c2nc(-c3ccccc3)c3cc(Br)ccc3n2)c2ccccc2N1,/,0,/,/,/,15,-2,i,
Clc1ccc(C(c2ccccc2)N2CCNCC2)cc1 (stereo not drawn),/,7,-30,-8,-12,5,-10,i,
COC(=O)c1ccc(OCCn2cnc3ccccc3c2=O)cc1,/,-9,-1,-3,-7,-2,2,i,
Cc1cccc(NS(=O)(=O)c2c(C)nc3scc(C)n3c2=O)c1,2,-7,-1,-6,-5,-13,2,i,
Cc1cc(C)n(CC(O)COc2ccc3ccccc3c2)n1 (stereo not drawn),-32,-9,3,0,/,6,7,i,
O=C(Nc1ccccc1C(=O)Nc1ccc(Br)cn1)c1cccc([N+](=O)[O-])c1,1,5,-1,0,-6,9,3,/,
O=[N+]([O-])/C(C(=C(Cl)Cl)N1CCOCC1)=C1\NCCO1,1,-1,-9,-5,/,-8,-2,i,
CC(=O)Nc1ccc(NC(=O)CCn2nnc3ccccc32)cc1,12,4,-2,-2,/,-4,9,i,
CCO[C@H]1OC(C(=O)NCc2ccccc2)=C[C@@H](c2ccc3c(c2)OCO3)[C@@H]1CCCO,1,0,/,/,-27,12,7,i,
O=C(c1ccc(-c2cc(Cl)ccc2Cl)o1)N1CCOCC1,-25,-2,-3,0,-13,-3,0,i,
O=C(NCCCn1ccnc1)c1ccc(Br)s1,-6,12,1,1,-1,-13,5,i,
Cc1cccc(NC(=O)CN2CCN(C(=O)C3CCN(C(=O)/C=C/c4ccccc4)CC3)CC2)c1C,/,/,6,-14,0,-9,/,/,
COc1ccc(NC(=O)CN2C(=O)C(c3ccccc3)=NC23CCCCCC3)cc1,-1,-3,-5,-4,12,-16,-12,i,
N#CC1(NC(=O)COC(=O)c2cc([N+](=O)[O-])ccc2N2CCOCC2)CCCCC1,-3,/,1,0,/,-8,/,i,
O=C1CC(N2C(=O)/C(=C/C=C/c3ccccc3)SC2=S)C(=O)N1c1ccccc1 (stereo not drawn),-3,14,-5,14,/,23,1,i,
N#CC1=C(N)Oc2cc(N)ccc2C1c1cccnc1 (stereo not drawn),/,5,0,5,/,-8,7,i,
COC(=O)c1c(NC(=O)c2cnccn2)sc2c1CCC2,-37,3,-2,3,-19,6,10,i,
COc1ccc(NCC(=O)N/N=C/c2c(C)nn(Cc3ccccc3)c2Cl)cc1,-3,5,4,3,-23,10,6,i,
COC(=O)c1ccc(CSc2nc3c(c(=O)n2-c2ccccc2)SCC3)o1,27,-6,1,-3,-5,-12,18,i,
CCOc1cc(CNC2CCCC2)cc(Cl)c1OCc1ccccc1,/,2,-8,-7,1,/,3,i,

# 2 compounds picked at random from those above:
SMILES,Env fusion inh,eIF4H FP inh,MT1-MMP act inh,MT1-MMP act inh RFP,UUG fidelity,CSC inhib,PABP FP inh,Rce1 inhib,others
COc1ccc(NCC(=O)N/N=C/c2c(C)nn(Cc3ccccc3)c2Cl)cc1,-3,5,4,3,-23,10,6,i,
O=C(c1ccc(-c2cc(Cl)ccc2Cl)o1)N1CCOCC1,-25,-2,-3,0,-13,-3,0,i,

# Further compounds follow:
SMILES,Env fusion inh,eIF4H FP inh,MT1-MMP act inh,MT1-MMP act inh RFP,UUG fidelity,CSC inhib,PABP FP inh,Rce1 inhib,others
CC(C)S(=O)(=O)NC(=O)C1(C)CCN1C(=O)Cc1ccccc1 (stereo not drawn),-8,/,1,4,0,/,/,/,
COc1ccc(/C(N)=N/OC(=O)c2ccc3ccccc3c2)cc1OC,-19,/,-1,0,-12,/,/,/,
Cc1ccc2nc3[nH]c(=O)[nH]c(=O)c3c(N)c2c1,38,/,-1,-8,-5,/,/,/,
Nn1c(SCc2c(F)cccc2F)nnc1-c1ccccn1,1,5,2,-2,-9,-13,6,i,
O=C(O)CSCC(=O)N(Cc1ccccc1)c1nc(-c2ccccc2)c(-c2ccccc2)s1,8,74*,-2,-5,-9,1,11,i,eIF4H FP inh retest=72*;PABP FP inh retest=8
O=C(COC(=O)c1ccc(F)c(S(=O)(=O)N2CCOCC2)c1)NCc1ccc2c(c1)OCO2,-4,/,3,1,4,8,/,/,
Cc1ccc(CNC(=O)CSc2c3c(nc4cc(Cl)ccc24)CCCC3)o1,?,2,-17,7,-15,-1,18,i,
Cc1ccc(S(=O)(=O)Cc2nnnn2-c2ccccc2)cc1,9,-5,-1,0,-4,-12,-14,i,
Cc1cccc2sc(N(CCCN(C)C)C(=O)CCc3ccccc3)nc12,-43,-8,-4,-5,0,-14,10,i,
Cc1nc(SCC(=O)N(C)Cc2ccco2)c2c(C)c(C)sc2n1,25,6,-1,-3,-7,-3,-2,i,
CC1CC(C)CN(S(=O)(=O)c2cccc(C(=O)OCCN3CCCC3=O)c2)C1 (stereo not drawn),/,-9,0,1,16,4,-2,i,
CCOc1ccc(NC(=O)CN(C)CC(=O)Nc2cc(Cl)ccc2C#N)cc1OCC,0,-12,1,4,-25,-5,-5,i,
CCC(=O)Nc1nnc(-c2ccncc2)s1,-18,-7,0,-2,/,-5,2,/,
Cc1ccc(S(=O)(=O)N2CCCCC2C(=O)N(C)c2ccccc2)cc1 (stereo not drawn),-7,-11,-1,-1,11,/,6,i,
O=C(CCNC(=O)c1ccccc1Cl)NCC(c1ccco1)N1CCCC1 (stereo not drawn),-1,/,0,3,-2,6,/,i,
CN(C)C(=O)C#Cc1ccccc1,-2,-17,-2,1,/,-2,-7,i,
COc1cccc(C(=O)Oc2ccc(/C=N/NC(=O)c3ccncc3)cc2OC)c1,2,-1,-1,-1,12,/,2,i,

# These rows are one share of the data; rates above refer to the full screens.
